# NPR1 antag: blocks ANP-stimulated signaling of human Npr1 receptor; AID 1347048; P16066; Potency, µM (doses to about 46.3 µM), for inactives: top-dose activity change, negative = inhibition, usual class: inhibitors; HEK293 hNpr1 GloSensor cGMP, ANP-stimulated luminescence; 76,000 tested, 1.6% active; active = well fitted inhibition curve with a large enough effect; inconclusive = small, poorly fitted or top-dose-only effect; inactive = no such curve, though single readings can be large or run the other way;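 further: nearly all actives have a fitted effect of over 60% in size; nearly all hits also lower the signal before the agonist is added; a reference antagonist and vehicle were the controls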
# Target sequence (P16066 whole entry, looked up): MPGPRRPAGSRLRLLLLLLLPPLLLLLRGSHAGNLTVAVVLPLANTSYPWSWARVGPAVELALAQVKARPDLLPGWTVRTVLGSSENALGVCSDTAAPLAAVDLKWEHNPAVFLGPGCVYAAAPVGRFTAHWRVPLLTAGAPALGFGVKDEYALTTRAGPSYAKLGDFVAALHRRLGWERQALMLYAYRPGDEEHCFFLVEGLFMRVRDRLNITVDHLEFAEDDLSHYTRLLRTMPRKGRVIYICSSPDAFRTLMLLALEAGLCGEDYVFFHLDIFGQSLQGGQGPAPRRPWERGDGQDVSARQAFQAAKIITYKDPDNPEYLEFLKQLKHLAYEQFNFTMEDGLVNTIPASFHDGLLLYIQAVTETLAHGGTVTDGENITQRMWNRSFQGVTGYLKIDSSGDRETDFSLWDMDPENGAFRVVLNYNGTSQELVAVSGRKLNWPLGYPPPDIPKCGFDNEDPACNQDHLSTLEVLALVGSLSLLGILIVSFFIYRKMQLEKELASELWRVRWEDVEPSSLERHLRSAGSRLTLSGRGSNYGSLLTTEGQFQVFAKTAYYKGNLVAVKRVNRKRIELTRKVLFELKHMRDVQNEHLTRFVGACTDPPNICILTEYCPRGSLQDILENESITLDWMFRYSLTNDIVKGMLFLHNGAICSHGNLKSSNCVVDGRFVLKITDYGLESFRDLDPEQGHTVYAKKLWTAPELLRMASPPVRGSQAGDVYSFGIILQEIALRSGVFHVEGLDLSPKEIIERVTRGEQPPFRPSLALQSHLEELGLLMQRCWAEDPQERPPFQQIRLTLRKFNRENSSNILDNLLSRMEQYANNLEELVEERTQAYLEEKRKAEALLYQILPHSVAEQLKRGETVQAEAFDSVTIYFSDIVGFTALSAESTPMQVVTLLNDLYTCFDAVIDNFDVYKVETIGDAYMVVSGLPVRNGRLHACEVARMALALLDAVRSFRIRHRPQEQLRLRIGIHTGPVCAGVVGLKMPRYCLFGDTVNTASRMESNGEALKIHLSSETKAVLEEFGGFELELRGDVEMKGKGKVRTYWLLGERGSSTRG
#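 Compound pre-incubated 30 min at room temperature on GloSensor-loaded HEK293 cells stably carrying hNpr1 and the pGS-40F cGMP biosensor. Stimulation uses hNppA at 0.1 nM final; luminescence is taken at baseline and 20 min post-agonist.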
# * marks the source's active call; other numbers are inactive results; ? = inconclusive; [ ] = dose if it differs, or a comment. On the % scale 0 is the no-effect control and ±100 the full control effect; potency means the concentration at half of the fitted maximal effect.
> Cn1cc(C(=O)N2CCC(N3C(=O)C(OCC4CC4)C34CCOCC4)CC2)cn1 (configuration not stated)
  NPR1 antag: 4%
> COCCn1c(=O)n([C@H]2CCCN(C(=O)CN3CCCC3=O)C2)c2ncccc21
  NPR1 antag: 14%
> CN1CCCCCCN(C(=O)CC2CCCC2)[C@H]2CCC[C@H]2C1=O
  NPR1 antag: -1%
> CCOC(=O)C1(Cc2cccc(C(F)(F)F)c2)CCN(Cc2ccc(COC)o2)CC1
  NPR1 antag: ?
> O=S(=O)(c1ccc(-n2cccn2)cc1)N1CCCC2(CCNC2)C1 (configuration not stated)
  NPR1 antag: 4%
> COCCN1CCCCCC(O)c2cc(C(=O)NCCN3CCCC3)ccc21 (configuration not stated)
  NPR1 antag: 2%
> N#Cc1ccc(O[C@@H]2CCOC[C@H]2NC(=O)CCc2cc(=O)[nH]o2)cc1
  NPR1 antag: 3%
> CC(C)CNC(=O)c1ccc2c(c1)NC(C)(COc1ccc3[nH]ccc3c1)CO2 (configuration not stated)
  NPR1 antag: -17%[70.6 µM]
> CCCCCCN(CCC(=O)NCCOC)C(=O)c1ccoc1
  NPR1 antag: -1%
> Cc1noc(C)c1S(=O)(=O)N1CCOC[C@H](Oc2ccc(C(F)(F)F)cc2)C1
  NPR1 antag: -21%[70.6 µM]
> CCCC1(CO)CCCN(Cc2ccc(OCC(=O)N3CCCC3)cc2)C1 (configuration not stated)
  NPR1 antag: 0%
> COc1ccc2[nH]c3c(c2c1)CCNC31CCN(C(=O)c2nccc3ccccc23)CC1
  NPR1 antag: 3%
> O=C(Cc1cccs1)N1CCCn2cc(-c3ccccc3)nc21
  NPR1 antag: -15%
> O=C(NC1CCCCC1)N1CCCCC1c1nc(-c2cnccn2)n[nH]1 (configuration not stated)
  NPR1 antag: -4%
> Cc1cnc(C2CC2)n1CCNS(=O)(=O)c1ccccc1Cl
  NPR1 antag: -4%

> CCC[C@H]1CN(Cc2ccccc2C#N)C[C@@H]1NS(C)(=O)=O
  NPR1 antag: 2%
> Cc1ccc(C(=O)Nc2ccc(C(O)[C@H]3COCC(=O)N3Cc3ccccc3F)cc2)cc1 (some centres not stated)
  NPR1 antag: 2%
> Cc1nn2c(c1-c1cccnc1N1CCOCC1)N(CC1CC1)CCC2
  NPR1 antag: -5%[70.6 µM]
> Cc1nn(-c2ccc(C(F)(F)F)cc2)c(C)c1[C@@H]1C=C[C@@H](NC(=O)Nc2ccccc2)C1
  NPR1 antag: ?
> COc1ccc(-n2nc(C3CCCN(C(=O)c4ccccc4F)C3)[nH]c2=O)cc1 (configuration not stated)
  NPR1 antag: -3%
> COCCN1C(=O)CCC2(CNC(=O)Cc3c(C)noc3C)CCCC=C12 (configuration not stated)
  NPR1 antag: 7%
> CCOc1ccc2c(n1)CCN(C(=O)c1ccc(OCC)c(OCC)c1)C2
  NPR1 antag: 0%
> COc1ccccc1CCC(=O)N1CCN(c2cc(-c3ccc(Cl)cc3)[nH]n2)CC1
  NPR1 antag: -17%
> O=C1N(c2ccccc2)CCOC12CCN([S+](=O)([O-])c1cccnc1)CC2
  NPR1 antag: 2%[70.6 µM]
> O=C1COCC2(CN(Cc3cc(F)ccc3F)C2)CN1Cc1ccccc1
  NPR1 antag: 1%[70.6 µM]
> Cc1cc(C(F)(F)F)nn1CC(=O)NCC1Cn2cccc2C(=O)N1Cc1ccccc1 (configuration not stated)
  NPR1 antag: -13%
> O=C(c1c(OCC2CC2)cc(=O)n2c1CCCCC2)N1CCN(c2ccccn2)CC1
  NPR1 antag: 3%
> CC1CCCN(C(=O)c2coc(COc3cccc(F)c3F)n2)C1 (configuration not stated)
  NPR1 antag: 1%
> COc1ccc(NC(=O)NC[C@H]2Cn3cc(-c4ccc(C)cc4)nc3CO2)cc1
  NPR1 antag: -8%[70.6 µM]
> CC1(C)C[C@H](NC2CCOCC2)[C@@]2(CCC(=O)N3CCOCC3)CC[C@](C)(O)C[C@@H]12
  NPR1 antag: 4%[70.6 µM]

> O=C(c1ccccc1F)N1CC[C@H]2COC(=O)N2c2cc(F)ccc2C1
  NPR1 antag: 3%[70.6 µM]
> COc1ccc(-c2cc(N3CCC(NC(=O)CCc4ccccc4OC)CC3)n[nH]2)cc1
  NPR1 antag: -3%
> Cc1noc2c(N(C)C)cc(-c3ccsc3)nc12
  NPR1 antag: 5%[70.6 µM]
> CN(Cc1ccc2nonc2c1)C(=O)C1CCN(C(=O)C2CCCC2)CC1
  NPR1 antag: 0%
> CC(O)CNC(=O)c1ccc(-c2ncc3cnc(C4=CCOCC4)cn23)cc1 (configuration not stated)
  NPR1 antag: -10%[70.6 µM]
> O=C(Nc1ccc(F)c(F)c1)C1CCN(C(=O)c2ncn3c2COC(c2ccc(F)cc2)C3)CC1 (configuration not stated)
  NPR1 antag: -14%
> CCCCNC(=O)CC(c1ccc(OC)cc1OC)c1c[nH]c2c(CC)cccc12 (configuration not stated)
  NPR1 antag: -19%
> CCCNC(=O)C(NC(=O)c1cccc(C)c1)C1CCN(C(=O)CCc2ccccc2)CC1 (configuration not stated)
  NPR1 antag: -2%
> CNC(=O)N1CCCCCCNC(=O)[C@@H]2CCCC[C@@H]21
  NPR1 antag: 3%
> COc1cccc(NC(=O)c2cnc3c(c2)N(C(=O)Cc2ccccc2OC)CCC3)c1
  NPR1 antag: -2%[70.6 µM]
> Cc1ccc(NC(=O)Nc2ccc(C)n(CC(=O)Nc3ccc(C)c(C)c3)c2=O)cc1
  NPR1 antag: 4%
> CCn1ccc2sc(C)c(C(=O)NCc3ccc(OC)cc3OC)c2c1=O
  NPR1 antag: -14%
> C[C@]1(NC(=O)c2cnccn2)OC[C@@H]2CC[C@H](C(=O)NCc3ccc(OC(F)(F)F)cc3)N2C1=O
  NPR1 antag: -2%
> Cc1noc(C)c1-c1cc2cc(CN(C)C)oc2c(NC(C)C)n1
  NPR1 antag: 5%[70.6 µM]
> COCCNC(=O)c1ccc2c(c1)N(C)C(CC(=O)Nc1ccc[nH]c1=O)CO2 (configuration not stated)
  NPR1 antag: 1%

> COc1ccc([C@H]2C[C@@H](O)[C@@H](O)[C@@H]2NCc2cnc3ccccc3c2)cc1
  NPR1 antag: -4%[70.6 µM]
> O=C1CCCCC(Cc2ccccc2)(C(=O)N2CCc3ccccc3C2)N1 (configuration not stated)
  NPR1 antag: -2%
> O=C(Nc1ccc([C@H]2OCC(=O)N(Cc3ccc(F)cc3)[C@@H]2CO)cc1)c1cnccn1
  NPR1 antag: 8%
> Cc1noc(C)c1S(=O)(=O)N1CCC2(C1)C(=O)N(C)c1ccccc12 (configuration not stated)
  NPR1 antag: 8%
> Cc1cc2nc3n(c(=O)c2n1CC(=O)NCc1ccc(F)cc1)CCCC3
  NPR1 antag: -16%
> CC(C)c1ccc(CC(=O)N2CCCc3ncc(C(=O)Nc4ccccc4)cc32)cc1
  NPR1 antag: 3.5µM*
> COc1cccc(Nc2ncc3c(n2)C(C)(C(=O)N2CCCC2)CC3)c1 (configuration not stated)
  NPR1 antag: -1%[70.6 µM]
> Cc1ccc(OCCC2CCN(C(=O)c3cc(CN4CCOCC4)on3)C2)cc1 (configuration not stated)
  NPR1 antag: ?
> NC(=O)c1cccnc1OC1CCN(C(=O)c2cccs2)C1 (configuration not stated)
  NPR1 antag: -2%
> O=C(CC1CCOCC1)Nc1ccc(OC(F)(F)F)cc1
  NPR1 antag: -13%
> COc1ccc(CN[C@H](C)c2onc(C)c2C(=O)O)cc1
  NPR1 antag: -5%[70.6 µM]
> O=C1COc2ccc(-c3ccc(F)cc3)nc2CN1
  NPR1 antag: -5%[70.6 µM]
> COCC(=O)N1CC[C@H](c2nc3ccc(C)cc3[nH]2)C1
  NPR1 antag: 2%[70.6 µM]
> C#CCNC(=O)c1nc(-c2ccccc2)c2ccccn12
  NPR1 antag: 1%[70.6 µM]
> C[C@]1(O)CCN(C(=O)CCS(=O)(=O)c2ccccc2)C[C@@H]1O
  NPR1 antag: -10%

> C=CCNC(=O)N1CC[C@H]2CC(=O)N([C@H](C(N)=O)C(C)C)CC[C@H]2C1
  NPR1 antag: 5%[70.6 µM]
> O=C(NCc1nnc2ccc(-c3ccccc3)nn12)c1cccc(Cl)c1
  NPR1 antag: -4%
> Cc1cccc(-n2nc(-c3c(C)nc4scc(CC(=O)NCCC(C)C)n4c3=O)cc2C)c1C
  NPR1 antag: -1%
> CN1c2cc(C(=O)Nc3cccc(OC(F)(F)F)c3)ccc2C(=O)N2CCCCC21 (configuration not stated)
  NPR1 antag: ?
> CCOc1cccc(CN2C[C@@H]3C(=O)N(CCCN4CCCC4=O)C(=O)[C@@H]3C2)c1
  NPR1 antag: 1%
> O=C(COc1ccccc1)NCCn1cccc1-c1nc(-c2ccc3c(c2)OCO3)no1
  NPR1 antag: -18%
> Cc1ccc(NC(=O)N2CCC(CCNC(=O)Cc3cccc(F)c3)CC2)cc1F
  NPR1 antag: 3%
> CCNC(=O)c1cccnc1OC1CCN(C(=O)c2ccccc2OC)C1 (configuration not stated)
  NPR1 antag: -1%
> COc1ccc2c(c1)CN(C(=O)c1cccc(C#N)c1)CC[C@H]1COC(=O)N21
  NPR1 antag: 0%[70.6 µM]
> O=C1CC(c2ccccc2)N(Cc2ccncc2)CCCN(C(=O)c2ccoc2)CCN1 (configuration not stated)
  NPR1 antag: 2%
> Cn1ccc(C2CCCCN2Cc2cc(=O)c3cc(C(N)=O)ccc3[nH]2)n1 (configuration not stated)
  NPR1 antag: 11%
> Cc1cc(C(=O)N2C[C@@H](CO)[C@H](c3ccncc3)C2)c(C)o1
  NPR1 antag: 0%
> Cn1ncc(N2CCCC(CC(=O)NCc3cc(F)cc(F)c3)C2)cc1=O (configuration not stated)
  NPR1 antag: 1%
> Cc1ccccc1N1CCCN(Cc2cccc(CCN)c2)CC1
  NPR1 antag: -4%
> COc1ccc(NC(=O)c2ccc3c(c2)OCCN(c2ccccc2)C3)cn1
  NPR1 antag: ?

> CCc1ccc(S(=O)(=O)N2CC(COC)C3(CCNCC3)C2)cc1 (configuration not stated)
  NPR1 antag: 5%
> O=C(c1nnc(COc2cc(F)cc(F)c2)n1-c1ccccc1)N1CCC[C@@H]1c1cccc(F)c1
  NPR1 antag: -2%
> O=C(NCc1cccc(F)c1)c1csc(N2CCN(c3ccc(Cl)cc3)CC2)n1
  NPR1 antag: 13µM*
> COCCOc1ccnc(-c2noc([C@@H]3CCCN3Cc3cccnc3)n2)c1
  NPR1 antag: -4%[70.6 µM]
> O=C1CCN(Cc2ccccc2OCC(O)CN2CCCCC2)CCN1 (configuration not stated)
  NPR1 antag: -1%
> O=C(CC1CCCC1)N1CCCC(c2noc(COc3ccccc3F)n2)C1 (configuration not stated)
  NPR1 antag: -3%
> Cc1nn(CC(=O)N2CCCC2)c(=O)c2nc(C(C)C)sc12
  NPR1 antag: 6%
> COc1cccc(CNC(=O)[C@@H]2C[C@@H](O)CN2C2CCN(C(=O)c3ccc(OC)cc3C)CC2)c1
  NPR1 antag: -1%
> CCc1noc(-c2ccn3c(CNC(=O)c4ccc(C(C)(C)C)cc4)nnc3c2)n1
  NPR1 antag: 7%
> CC(C)CN1C(=O)c2ccccc2C(C(=O)Nc2ccccn2)C12CCCC2 (configuration not stated)
  NPR1 antag: -5%
> Cc1nc2c(c(N3CCC(O)(CN4CCCC4)CC3)n1)CCNCC2
  NPR1 antag: 2%
> O=C(Nc1cccc(-n2cccn2)c1)C1CCCN1C(=O)CC1CC1 (configuration not stated)
  NPR1 antag: 4%
> COc1ccc(-c2cc(N3CCN(C(=O)c4cccc(OC)c4)CC3)n[nH]2)cc1
  NPR1 antag: -4%
> Cc1cc(CNC(=O)[C@@H]2CCC[C@@H](NC(=O)CC(C)C)CN(C)C(=O)C2)no1
  NPR1 antag: -1%[70.6 µM]
> O=C(Cc1cccs1)N1CC[C@H]2COC(=O)N2c2cc(F)ccc2C1
  NPR1 antag: -4%[70.6 µM]

> Cc1noc(C)c1CCC(=O)NC(c1cnn(C)c1)C1CC(O)C1 (configuration not stated)
  NPR1 antag: 0%
> Cc1cn2nc(C(=O)N3CCC(NC(=O)COc4ccccc4)CC3)cc2c(=O)[nH]1
  NPR1 antag: 20%
> CC(C)(C)c1ccc(C(=O)Nc2ccc([C@H]3OCC(=O)N[C@@H]3CO)cc2)cc1
  NPR1 antag: -1%[70.6 µM]
> COCCOC1CCN(C(=O)Cc2cccs2)CC1
  NPR1 antag: 0%
> COc1ccccc1N1CCN([C@H]2[C@@H]3OC[C@@H](O3)[C@@H](NCc3ccc(OC(F)(F)F)cc3)[C@@H]2O)CC1
  NPR1 antag: 2%
> Cn1ccnc1CNC(=O)C[C@@H]1C[C@H]2O[C@H](CNCc3cnccc3C(F)(F)F)[C@@H](O)[C@H]2O1
  NPR1 antag: 2%
> O=S(=O)(c1cccnc1)N1CCC(OC2CCN(Cc3cccnc3)CC2)CC1
  NPR1 antag: -15%
> C=CCC1(CO)CCCN(S(=O)(=O)c2ccccc2F)C1 (configuration not stated)
  NPR1 antag: 6%
> O=C(Cn1nc2c(cc1=O)CCCCC2)Nc1ccc(F)cc1
  NPR1 antag: -6%
> NC(=O)c1ccc(N2CCN(Cc3cnc(-c4ccco4)nc3)CC2)nc1
  NPR1 antag: 0%
> Cc1cccc(N(CC(=O)N[C@H]2CC[C@H]2NC2CCCC2)S(C)(=O)=O)c1
  NPR1 antag: -4%
> O=C(C1CC1)N1CC[C@H]2COC(=O)N2c2ccccc2C1
  NPR1 antag: -2%[70.6 µM]
> COc1ccc(C(=O)N2CCC(n3cc(-c4nc(C)no4)nn3)CC2)c(OC)c1
  NPR1 antag: 11%
> Cc1ccc(-c2cc3c(=O)n(CCNC(=O)Cc4c[nH]c5ccccc45)ccn3n2)c(C)c1
  NPR1 antag: ?

# Bioassay records from PubChem.

# An excerpt; rates above refer to the full screens.
